# High-throughput results from PubChem BioAssay.
# VDR inh – Inhibitors of the vitamin D receptor (VDR): qHTS. VDR-SRC2-3 peptide fluorescence polarization, 2 h. Potency, µM, inactives show max response, negative = inhibition, hits mostly inhibitors. 400,000 compounds, 0.93% hits. Vitamin D3 receptor (Homo sapiens), P11473; active = well fitted inhibition curve with a large enough effect; inconclusive = small, poorly fitted or top-dose-only effect, or another doubt; inactive = no such curve, though single readings can be large or run the other way; also: series mostly up to about 120 µM
# Target sequence (P11473 whole entry, looked up): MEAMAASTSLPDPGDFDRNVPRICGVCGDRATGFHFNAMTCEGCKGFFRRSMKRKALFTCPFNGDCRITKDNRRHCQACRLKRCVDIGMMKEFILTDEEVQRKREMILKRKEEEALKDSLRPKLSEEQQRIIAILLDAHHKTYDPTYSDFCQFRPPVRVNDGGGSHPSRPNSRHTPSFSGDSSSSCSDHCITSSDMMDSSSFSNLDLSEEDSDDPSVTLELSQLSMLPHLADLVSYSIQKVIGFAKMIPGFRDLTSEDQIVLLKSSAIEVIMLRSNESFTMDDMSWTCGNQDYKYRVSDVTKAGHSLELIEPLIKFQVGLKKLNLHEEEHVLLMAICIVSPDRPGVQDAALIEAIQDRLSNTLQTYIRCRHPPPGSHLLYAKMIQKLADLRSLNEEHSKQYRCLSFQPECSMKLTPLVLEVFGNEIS
#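 Measured by FP: displacement of SRC2-3 coactivator peptide from VDR by library compounds, following a two-hour ambient incubation.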
# * marks the source's active call; other numbers are inactive results; ? = inconclusive; & = joins results of further samples; [ ] = another dose, or the depositor's remark. % is scaled to controls: 0 for no effect and ±100 for the full control effect; potency is read from the fitted curve at half-maximal effect. Only part of the results is shown; the hit share may differ from the screen's.
SMILES,VDR inh
Cc1ccc(SCCN2C(=O)NC(C)(C)C2=O)cc1,7%
C/C(=N\Nc1cccc(C(F)(F)F)c1)c1ccc(O)cc1,-10%
COC(=O)NNC(=O)COc1ccc2ccccc2c1Br,4%
O=C(Cn1c(=O)c2ccccc2n2nncc12)Nc1cccc(F)c1,-7%
Cc1ccc2c(c1)N(C(=O)CCC(=O)NCCCN(C)Cc1ccccc1)CCO2,13%
CC(C)(C)NS(=O)(=O)c1ccc(NC(=S)NC(=O)C2CC2)cc1,18%
CC1CCN(S(=O)(=O)c2cccc(-c3nnc(-c4cccnc4)o3)c2)CC1,?
CCn1c(=NC(=O)CS(=O)(=O)c2ccccc2)sc2cccc(OC)c21,-1%
Cn1c(NCc2c[nH]c3ccccc23)nc2ccccc21,-17%
O=C(Cn1ncc2c1-c1ccccc1OC2)N1CCN(Cc2ccccc2)CC1,-5%
COc1ccc2[nH]cc(CCNc3ccnc(-c4ccccc4Cl)n3)c2c1,-19%
Cc1nn(-c2ccccc2)cc1/C=N/NS(=O)(=O)c1ccccc1,-5%
O=C(CN1CCN(Cc2cccc3ccccc23)CC1)NCCc1ccccc1,-3%
CCOC(=O)C(O)(CC(=O)Nc1ccc(Cl)cc1Cl)C(F)(F)F (centres undefined),1%
CC(C)C(=O)Nc1ccc(C(=O)NNC(=O)c2ccco2)cc1,-14%
CCCCOC(=O)c1ccc(NC(=O)c2nn(C)cc2Br)cc1,3%
O=C(CSc1n[nH]c(-c2cccnc2)n1)Nc1ccc([N+](=O)[O-])cc1,4%
O=C(CCC1CCCC1)NCCS(=O)(=O)N1CCN(c2ccc(F)cc2)CC1,8%
Cc1ccc(C(C)C)c(OCC(=O)Nc2ccc3c(c2)nc(CCN2CCCCC2)n3C)c1,12%
CCOc1ccccc1NC(=S)N1CCN(c2ccc(O)cc2)CC1,-17%
CC1(C)CC(=O)C(C=NCC2CCN(C(=S)Nc3cccc(Cl)c3)CC2)=C(O)C1,1%
O=C(CCN1CCOCC1)Nc1ccc2c(c1)N(C(=O)CN1CCOCC1)c1ccccc1CC2,-6%
COc1cccc(NC(=O)CN(C)CC(=O)Nc2ccccc2-c2ccccc2)c1,-1%
CC(=O)NCCn1c(SCC(=O)NC2CCCCC2)nc2ccccc2c1=O,-10%
C=CCOc1ccc(C2CC(C)=NN2c2ccccc2)cc1 (centres undefined),12%
O=C(CNC(=O)c1ccco1)Nc1ccc(Cl)cc1,-7%
CCN(C(=O)c1ccc2c(SCC(=O)O)c3c(nc2c1)CCC3)c1cc(Cl)ccc1OC,?
O=C(C1=C[C@H](C2CCCCC2)C[C@H](OCc2ccc(CO)cc2)O1)N1CCOCC1,-3%
FC(F)(F)c1ccc(Cl)c(NC(=S)N/N=C/c2ccccc2Cl)c1,-7%
O=C(O)C1CCCCC1C(=O)NCc1ccc(F)cc1 (centres undefined),-7%
Cc1noc(C)c1COc1ccc(CC(=O)NCCc2ccccc2)cc1,-12%
COc1cc(C(=O)NC(=S)Nc2ccc(Cc3ccncc3)cc2)cc(OC)c1OC,-9%
O=C(NNC1=NCCC1)c1cccc(S(=O)(=O)N2CCCCC2)c1,2%
COc1cc(NC(=O)c2ccco2)c(OC)cc1NC(=O)CSc1ncc(-c2ccc(F)cc2)[nH]1,16%
Cc1nc(NC(C)c2ccccc2)sc1C(=O)Nc1ccccc1 (centres undefined),-16%
CCOC(=O)c1sc(SC)c(C(C)=O)c1C,9%
COC(=O)c1ccc(/C=N/Nc2nc(-c3ccc(C)cc3)cs2)cc1,-29%
Cc1cccc(CNC(=O)c2oc3c(c2C)-c2nn(Cc4cccc(Cl)c4)cc2CC3)c1,7%
O=C1N=c2ccccc2=C1c1sc(NS(=O)(=O)c2ccccc2)nc1O,-14%
O=c1cc([O-])[n+]2c3n1CCCN3CCC2,-15%
Clc1cc(Cl)c(OCCCCn2cncn2)c(Cl)c1,-17%
COc1cccc(CNC(=O)CCCc2nnc3n(C)c(=O)c4sccc4n23)c1,-16%
CSc1ncccc1C(=O)OCC(=O)N1CCc2ccccc21,-24%
C=CCOC(=O)C1=C[C@H](c2ccc(C(F)(F)F)cc2)[C@@H](CCCO)[C@H](OCC)O1,-13%
O=C(c1ccc(Cl)c(S(=O)(=O)N2CCCC2)c1)N1CCN(Cc2ccccc2)CC1,1%
O=C(CCSCc1ccccc1F)N1CCN(c2ccc(Cl)cc2)CC1,5%
COc1ccc(C(=O)Nc2sc(C(=O)N(C)C)c(C)c2C#N)cc1[N+](=O)[O-],-7%
Cc1[nH]c(SCC(=O)Nc2cc(S(C)(=O)=O)ccc2Cl)nc1Cc1ccccc1,2%
CC(=O)c1cccc(NC(=O)C(CC(C)C)NC(=O)C2CCCCC2)c1 (centres undefined),-17%
Cc1c(CNC2CCCCC2)c(C(=O)O)c(C)n1Cc1c(F)cccc1Cl,11%
# (further entries)
SMILES,VDR inh
O=C(Cn1nnc2ccccc2c1=O)NCc1ccco1,9%
COc1ccc(NC(=O)CSc2nnc(-c3cccs3)o2)cc1,3%
CC1Cc2ccccc2N1C(=S)NC(=O)c1ccco1 (centres undefined),-7%
CCc1ccc(NC(=O)C(=O)NCCc2sc(-c3ccc(C)cc3)nc2C)cc1,-10%
COc1ccccc1C1/C(=C(/O)c2ccc(C)cc2)C(=O)C(=O)N1CCN1CCOCC1 (centres undefined),4%
O=C(O)c1cc(N(Cc2ccccc2O)Cc2ccccc2O)ccc1O,?
Cc1ccc(S(=O)(=O)CCC(=O)OCC(=O)NCCc2ccccc2)cc1,2%
Cc1c(C(=O)Nc2cccc([N+](=O)[O-])c2)sc2ncn(CC(=O)N3CCOCC3)c(=O)c12,2%
COCC(C)n1c(SC(C)C(=O)NC2CCCCC2C)nc2ccccc2c1=O (centres undefined),0%
CN1CCN(C(=S)NC(=O)c2ccc(Cl)cc2)CC1,-8%
Cc1cc(C)c2nc(NC(=O)c3ccc(S(=O)(=O)N4CCCC4)cc3)sc2c1,-3%
CCCCNC(=O)C1(O)c2cc(Br)ccc2NC(=O)N1c1cccc(OC)c1 (centres undefined),2%
COc1cccc(NC(=O)Nc2cc(-c3cn4cccnc4n3)ccc2C)c1,20%
COc1ccc(C2=NS(=O)(=O)N(C)C(C(=O)NCc3ccco3)=C2)cc1OC,6%
COc1cc(NC(=O)O[C@@H]2C(=O)c3cc(Br)ccc3O[C@H]2c2ccc3c(c2)OCO3)cc(OC)c1OC,-11%
COc1ccccc1CN(C)C(=O)COC(=O)c1ccc(Cl)nc1,-4%
O=c1c(CCc2ccccc2)nc2cnc(N3CCNCC3)nc2n1C1CC1,-19%
C=CCNC(=O)c1n[nH]c2c1CC(C(C)(C)CC)CC2 (centres undefined),1%
CC(C)C[C@@]12C(=O)N(c3cccc(F)c3)C(=O)N1[C@H](c1ccc(Br)cc1)[C@@H]1C(=O)N(C(C)(C)C)C(=O)[C@@H]12,-6%
CC1CN(C(=O)c2cccc(S(=O)(=O)N3CCN(c4ccccc4)CC3)c2)CC(C)O1 (centres undefined),-22%
Clc1ccc(CSc2nnc(/C=C/c3ccccc3)o2)c(Cl)c1,0%
CCOC(=O)N1CCN(CC(=O)Nc2nc3ccccc3s2)CC1,-1%
Cc1ccc2nc(-c3ccc(Cl)c(NC(=O)c4ccc(Br)o4)c3)oc2c1,2%
O=[N+]([O-])/C=C/c1cn(Cc2ccc(F)cc2)c2ccccc12,20µM*
O=c1n(Cc2ccc(F)cc2)c2ccccc2c2nc(-c3ccccc3)nn12,3%
Cc1ccc2c(CC(=O)N(CC3CCCO3)c3c(N)n(Cc4ccccc4)c(=O)[nH]c3=O)coc2c1 (centres undefined),-7%
O=C(O)C1=C(C(=O)Nc2cc(C(F)(F)F)ccc2Cl)CCCC1,22%
C[N+]1(C)CCCC(OC(=O)C(O)(c2ccccc2)c2ccccc2)C1 (centres undefined),2%&12%
COc1ccc(CNC(=O)C2CCN(S(=O)(=O)N3CCCC3)CC2)cc1,-17%
COCC(=O)OCC(=O)N1N=C(c2ccc(Cl)cc2)CC1c1ccco1 (centres undefined),-23%
CCOC(=O)Cc1nn2c(=O)cc(C)nc2s1,-18%
COc1ccc(-n2nc(C(=O)NCC(=O)Nc3cccc(Cl)c3)c3ccccc3c2=O)cc1OC,2%
CC(=O)OC1CCC2(C)C(CCC3C2CC(OC(C)=O)C2(C)C3C[C@@H]3O[C@]4(CC[C@@H](C)CO4)[C@@H](C)C32)C1 (some centres undefined),-15%
CCCC(=O)NC(=S)Nc1ccc(S(=O)(=O)N2CCc3ccccc32)cc1,0%
Nc1nc2ccc(Br)cc2o1,7%
Nc1nc(-c2c[nH]c3ccccc23)cs1,134%[activator]
Cn1cc([N+](=O)[O-])c(C(=O)NCC(=O)O)n1,4%
Cc1ccccc1NC(NC(=O)OCCn1c([N+](=O)[O-])cnc1C)C(Cl)(Cl)Cl (centres undefined),-13%
Cc1oc(C(C)(C)C)cc1C(=O)NC(Cc1ccccc1)C(=O)O (centres undefined),-15%
Cc1cccc(C)c1NC(=O)N1CCC(n2c(=O)[nH]c3ccccc32)CC1,1%

# Arranged by number of heavy atoms (high to low): 15 of the compounds above.
SMILES,VDR inh
CC(C)C[C@@]12C(=O)N(c3cccc(F)c3)C(=O)N1[C@H](c1ccc(Br)cc1)[C@@H]1C(=O)N(C(C)(C)C)C(=O)[C@@H]12,-6%
Cc1ccc2c(CC(=O)N(CC3CCCO3)c3c(N)n(Cc4ccccc4)c(=O)[nH]c3=O)coc2c1 (centres undefined),-7%
COc1ccc(-n2nc(C(=O)NCC(=O)Nc3cccc(Cl)c3)c3ccccc3c2=O)cc1OC,2%
CC1CN(C(=O)c2cccc(S(=O)(=O)N3CCN(c4ccccc4)CC3)c2)CC(C)O1 (centres undefined),-22%
O=c1n(Cc2ccc(F)cc2)c2ccccc2c2nc(-c3ccccc3)nn12,3%
CCCC(=O)NC(=S)Nc1ccc(S(=O)(=O)N2CCc3ccccc32)cc1,0%
Cc1ccc2nc(-c3ccc(Cl)c(NC(=O)c4ccc(Br)o4)c3)oc2c1,2%
C[N+]1(C)CCCC(OC(=O)C(O)(c2ccccc2)c2ccccc2)C1 (centres undefined),2%&12%
CCOC(=O)N1CCN(CC(=O)Nc2nc3ccccc3s2)CC1,-1%
Clc1ccc(CSc2nnc(/C=C/c3ccccc3)o2)c(Cl)c1,0%
O=[N+]([O-])/C=C/c1cn(Cc2ccc(F)cc2)c2ccccc12,20µM*
CCOC(=O)Cc1nn2c(=O)cc(C)nc2s1,-18%
Cn1cc([N+](=O)[O-])c(C(=O)NCC(=O)O)n1,4%
Nc1nc(-c2c[nH]c3ccccc23)cs1,134%[activator]
Nc1nc2ccc(Br)cc2o1,7%

# Continuation:
SMILES,VDR inh
CC[C@]12c3[nH]c4ccccc4c3CCN1C(=O)C(CC(=O)NCCC1=CCCCC1)C[C@@H]2C(=O)N1CCN(C(=O)c2ccco2)CC1 (some centres undefined),-3%
Cc1ccccc1NC(=O)C1CC(=O)OC12CCOC(C)(C)C2 (centres undefined),-5%
CC(C)(C)c1ccc(NC(=O)COC(=O)c2ccc(NS(=O)(=O)c3ccc(F)c(F)c3)cc2)cc1,-8%
CCCOc1ccc(C(=O)NC2CCSc3ccccc32)cc1 (centres undefined),-8%
Cc1ccc(S(=O)(=O)N2c3ccccc3OCC2C(C)(C)C)cc1 (centres undefined),35%[activator]
O=C(CCCCCNC(=O)N1CCn2c1nc1ccccc12)N[C@H](Cc1ccccc1)C(=O)O,-9%
COc1cccc(/C=N/n2cnnc2)c1OCc1ccccc1,15%
CC(C)CCNC(=O)C12CN(Cc3ccccc3)CC1C(c1ccc([N+](=O)[O-])cc1)=NO2 (centres undefined),-10%
O=C(/C=C/c1ccco1)NC(=S)Nc1cccc(-c2nc3ccccc3o2)c1,-6%
Cc1nn(CC(=O)N2CCc3ccccc32)c(C)c1S(=O)(=O)NC(C)(C)C,10%
Cc1ccccc1CN1CCN(S(=O)(=O)c2ccc(Cl)s2)CC1,-3%
CCc1ccc(Nc2ncccc2C#N)cc1,3%
CNc1nnc(-c2cccc(N(C)C)c2)s1,-4%
COc1ccc(C(=O)Nc2nnc(C3=COCCO3)o2)cc1OC,11%
O=C(Nc1ccccc1)N(C1=NCCCCS1)c1cccc2ccccc12,-9%
CC(=O)Nc1ccc(NC(=O)C(C)Oc2ccccc2C(=O)NCc2ccccc2)cc1 (centres undefined),8%
CN(C)/C=C(/C(=O)c1ccccc1)n1cncn1,-20%
COc1cc(/C=C2\N=C3CCCCCN3C2=O)ccc1O,-5%
CCOc1ccc(OCC)c(NC(=O)C2CCN(c3cnccn3)CC2)c1,3%&8%
O=C(O)CCn1cnc2onc(-c3ccccc3Cl)c2c1=O,-14%
CCOC(=O)c1c(NC(=O)Cn2nnc(-c3ccc(Cl)cc3)n2)sc(C)c1C,-8%
Cn1c(C(=O)Nc2ccc3c(c2)OCCO3)cc2c(=O)n(C)c3ccccc3c21,-4%
COCCCn1c(C(=O)N2CCOCC2)cc2c(=O)n3cccc(C)c3nc21,-7%
Cc1ccc(NC(=O)CN2CCCCCC2)c(Br)c1,-1%
CSCCC(NC(=O)c1ccco1)C(=O)O (centres undefined),11%
CC(=O)Cn1cnc2c(sc3nc(C)cc(C)c32)c1=O,11%
CCCC(=O)Nc1nnc(S(=O)(=O)N2CCCCCC2)s1,13%&14%
COc1ccc(C2CC(=O)C(C=NCCCO)=C(O)C2)cc1 (centres undefined),-12%
COc1ccc(C(=O)Nc2ccc(S(=O)(=O)Nc3ncccn3)cc2)cc1OC,9%
C=CCNc1cccc(Br)c1,4%
CCN(CC)S(=O)(=O)c1ccc(OC)c(NC(=O)c2ccc([N+](=O)[O-])cc2)c1,-9%
Cc1ccc(-c2cc3onc(-c4ccccc4)c3c(=O)n2C)cc1,3%

# Part of the list above in order of molar mass, low to high.
SMILES,VDR inh
Cc1cc(C)c2nc(NC(=O)c3ccc(S(=O)(=O)N4CCCC4)cc3)sc2c1,-3%
Cc1cccc(CNC(=O)c2oc3c(c2C)-c2nn(Cc4cccc(Cl)c4)cc2CC3)c1,7%
CC(=O)OC1CCC2(C)C(CCC3C2CC(OC(C)=O)C2(C)C3C[C@@H]3O[C@]4(CC[C@@H](C)CO4)[C@@H](C)C32)C1 (some centres undefined),-15%
